Assay outcomes: PubChem, Broad Institute
DUX4 inh = DUX4-mediated transcription inhibition; activity change, negative = inhibition, % (concentration not given with the values); AID 1224904; 293T-iDUX4 ZSCAN4-Gaussia luciferase reporter, 24 h; active compounds read low; 37,000 tested, 0.8% active;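 active = -10% or lower and over 25 points stronger than a control reporter; inconclusive = -10% or lower with a smaller gap; inactive = above -10%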;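 note: 0% = median of neutral control wells and -100% = median of positive control wells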
DUX4 inh difference = second read-out of DUX4 inh, no call of its own (marks repeat the call); Gaussia minus Italica difference, %; measured here: selective DUX4 reporter inhibition;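 worked out from the two reporters; negative = selective loss of the DUX4 reporter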
DUX4 inh control = second read-out of DUX4 inh, no call of its own (marks repeat the call); activity change, negative = inhibition, %; measured here: Italica tet-on control reporter;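 0 = neutral control and -100 = positive control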
* = called active by the depositor; ? = inconclusive; nt = not tested or not shown.

DUX4 inh control,structure,DUX4 inh difference,DUX4 inh
-0.4,CCC(=O)N1[C@@H](CO)[C@@H](c2ccc(-c3cccc(OC)c3)cc2)C12CN(C(C)=O)C2,0,0
-0.2,C[C@@H]1CN([C@@H](C)CO)C(=O)c2cc(N(C)C)ccc2O[C@@H](C)CCCCO[C@H]1CN(C)Cc1ccc(C(=O)Nc2ccccc2N)cc1,0,0
-5.8,COc1ccc(-c2ccc([C@@H]3[C@@H](C#N)N[C@@H]3CO)cc2)cc1,0,-6
-0.1,CCC(=O)N1[C@H](CO)[C@H](c2ccccc2)C12CN(C(=O)c1ccc(F)cc1)C2,2,2
2.6,C[C@H]1CCCCO[C@H](CN(C)C(=O)c2ccncc2)[C@@H](C)CN([C@@H](C)CO)C(=O)c2cc(NS(=O)(=O)c3cn(C)cn3)ccc2O1,-1,2
-0.9,C[C@H](CO)N1C[C@H](C)[C@@H](CN(C)S(=O)(=O)c2cn(C)cn2)Oc2cc(C3=CCCCC3)ccc2S1(=O)=O,0,-1
2.3,CC(C)C(=O)Nc1ccc2c(c1)C(=O)N(C)[C@@H]1CC[C@@H](CC(=O)NCCCN(C)C)O[C@H]1CO2,4,6
nt,N#Cc1cccc(-c2ccc3c(c2)[C@H]2[C@H](CCN2Cc2ccncc2)[C@H](CO)N3)c1,nt,?
-5.6,O=C(Cc1ccccn1)NCC[C@H]1CC[C@@H](NC(=O)Nc2ccc(C(F)(F)F)cc2)[C@@H](CO)O1,1,-5
4.4,O=S(=O)(c1ccc(F)cc1)N1C[C@H]2[C@@H](c3ccccc31)[C@@H](CO)N2Cc1ccc2c(c1)OCO2,0,5
1.5,CCCNC(=O)N1CC2(C1)[C@H](c1ccccc1)[C@H](CO)N2C(=O)C1CCCCC1,-1,1
0.6,Cc1noc(C)c1NC(=O)Nc1ccc2c(c1)C(=O)N([C@@H](C)CO)C[C@@H](C)[C@@H](CN(C)S(=O)(=O)c1ccc(F)cc1)O2,-3,-2
12,CN(C)CC(=O)N1[C@@H](CO)[C@@H](c2ccccc2)C12CN(CCC(F)(F)F)C2,-1,11
1.6,COc1cccc(-c2ccc3c(c2)O[C@H](CN(C)Cc2cccnc2)[C@@H](C)CN([C@@H](C)CO)S3(=O)=O)c1,1,2
0.1,CC(C)NC(=O)N1CC(=O)N2[C@H](C1)[C@H](c1ccc(/C=C/c3ccccc3)cc1)[C@@H]2CO,1,1
-2.0,C/C=C/c1ccc([C@@H]2[C@H](CO)N(C(=O)C3CC3)[C@H]2CN(CC)C(C)=O)cc1,4,3
1.4,COC(=O)[C@@H]1[C@@H](CO)[C@@H]2Cn3c(ccc(-c4cccc(OC)c4)c3=O)[C@@H]2N1Cc1nccs1,-7,-6
-2.6,CCNC(=O)[C@@H]1[C@@H](CO)[C@@H]2Cn3c(ccc(-c4ccccc4)c3=O)[C@@H]2N1Cc1cccnc1,2,-1
-5.4,O=C(C[C@@H]1CC[C@@H](NC(=O)CN2CCOCC2)[C@H](CO)O1)NC1CCC1,2,-4
-0.7,CO[C@H]1CC[C@H]2CCOc3ccc(C#N)cc3C(=O)N(C)C[C@H](C)C(=O)N(C)C[C@@H]1O2,1,0
2.7,C[C@H]1CN([C@@H](C)CO)C(=O)c2cc(C3=CCCC3)cnc2O[C@H]1CN(C)C(=O)Nc1ccc(C(F)(F)F)cc1,-2,1
-5.2,COc1ccccc1-c1cn(CC[C@@H]2CC[C@@H](NC(=O)C3CCCCC3)[C@H](CO)O2)nn1,11,6
5.0,COc1ccccc1-c1ccc2n(c1=O)C[C@@H]1[C@@H](CO)[C@H](C(=O)N(C)C)N[C@H]21,-7,-2
6.3,CCNC[C@@H]1[C@H](c2ccc(C3=CCCC3)cc2)[C@H](CO)N1c1nc(C)c(C)s1,-2,4
3.6,O=S(=O)(NCC[C@@H]1CC[C@H](NS(=O)(=O)c2cccc(Cl)c2)[C@@H](CO)O1)c1cccc(F)c1,-9,-5

New compounds follow
DUX4 inh control,structure,DUX4 inh difference,DUX4 inh
2.2,COc1cccc(-c2ccc([C@@H]3[C@@H](CO)N(C(=O)Cc4ccccc4)[C@H]3C#N)cc2)c1,-2,0
0.7,C[C@@H]1CN([C@H](C)CO)C(=O)Cc2cc(NC(=O)Nc3cccc4ccccc34)ccc2O[C@@H]1CN(C)S(=O)(=O)c1ccc(Cl)cc1,-2,-1
3.1,CCCNC(=O)C[C@H]1C[C@H]2c3cc(NS(=O)(=O)c4ccc(F)cc4)ccc3O[C@H]2[C@@H](CO)O1,5,9
4.5,CN1[C@H](C(=O)N2CCOCC2)[C@@H](CO)[C@@H]2Cn3c(ccc(/C=C/c4ccccc4)c3=O)[C@@H]21,-3,1
nt,COc1cccc(-c2ccc3c(c2)[C@H]2[C@H](CCN2S(=O)(=O)c2ccccc2C)[C@H](CO)N3C)c1,nt,?
-2.1,Cc1ccc(S(=O)(=O)N2C[C@H](O)COC[C@H]3O[C@@H](CC(=O)N4CCc5ccccc5C4)CC[C@@H]32)cc1,-7,-9
0.4,COc1ccc(S(=O)(=O)N[C@@H]2C=C[C@H](CC(=O)NCc3ccccc3F)O[C@H]2CO)cc1,7,7
1.5,O=C([C@@H]1[C@@H](CO)[C@@H]2Cn3c(cccc3=O)[C@@H]2N1C(=O)CC1CC1)N1CCCCC1,-3,-1
-6.7,COc1ccccc1NC(=O)N[C@@H]1CC[C@@H](CCNC(=O)c2ccc3c(c2)OCO3)O[C@H]1CO,5,-2
-0.2,C[C@@H]1CN([C@@H](C)CO)C(=O)c2cc(C3=CCCC3)cnc2O[C@H]1CN(C)C(=O)Nc1ccc(C(F)(F)F)cc1,-6,-6
-2.8,C[C@H]1CN([C@@H](C)CO)C(=O)CCCn2nncc2CO[C@@H]1CN(C)C(=O)CCCN(C)C,5,2
-2.6,CC(=O)N(C)C[C@@H]1Oc2cc(C#Cc3ccc(F)cc3)ccc2S(=O)(=O)N([C@H](C)CO)C[C@@H]1C,1,-2
3.9,CN1C(=O)c2cc(NC(=O)c3cccc(F)c3)ccc2OC[C@H]2O[C@@H](CC(=O)NCc3ccccc3Cl)CC[C@H]21,-4,0
1.6,COc1ccccc1CNC(=O)C[C@H]1C[C@@H]2c3cc(NC(=O)c4cccnc4)ccc3O[C@@H]2[C@@H](CO)O1,-9,-7
2.7,O=C(C[C@H]1C[C@H]2c3cc(NC(=O)Cc4ccncc4)ccc3O[C@H]2[C@@H](CO)O1)NCc1ccccn1,-2,1
-4.1,CO[C@H](CN(C)C(=O)C1CCOCC1)[C@@H](C)CN(C(=O)Nc1ccc(F)cc1)[C@H](C)CO,1,-3
6.7,CN1[C@H](C(=O)Nc2nccs2)[C@@H](CO)[C@@H]2Cn3c(ccc(-c4ccccc4F)c3=O)[C@@H]21,-12,-6
1.7,CC(C)NC[C@@H]1[C@@H](c2ccc(C3=CCCCC3)cc2)[C@@H](CO)N1C(=O)CC1CC1,-3,-2
nt,O=C(c1ccc2c(c1)OCO2)N1CC(=O)N2[C@H](CO)[C@H](c3ccc(C#CCC4CCCC4)cc3)[C@@H]2C1,nt,?
8.5,CCCN1[C@@H]2c3ccc(-c4ccc(F)cc4)c(=O)n3C[C@@H]2[C@@H](CO)[C@@H]1C(=O)N[C@@H](C)c1ccccc1,-12,-4
5.0,CCCNC(=O)N1C[C@H](C)[C@H](OC)CN(C)C(=O)c2cc(NC(C)=O)ccc2OC[C@H]1C,2,7
1.9,C[C@H]1CN([C@@H](C)CO)C(=O)c2cc(-c3ccc(F)cc3)cnc2O[C@@H]1CN(C)S(C)(=O)=O,-2,-1
4.3,CN(C)c1ccc2c(c1)[C@H]1C[C@@H](CC(=O)N3CCc4ccccc4C3)O[C@@H](CO)[C@H]1O2,-4,1
5.0,Cc1noc(C)c1NC(=O)Nc1ccc2c(c1)C(=O)N([C@@H](C)CO)C[C@@H](C)[C@@H](CN(C)C(=O)Nc1cccc3ccccc13)O2,-3,2
1.1,CN1CCCCN2[C@@H](CO)[C@@H](c3ccc(-c4ccc(F)cc4)cc3)[C@@H]2C1,8,9

Quoted at random: 4 records from the list
DUX4 inh control,structure,DUX4 inh difference,DUX4 inh
1.9,C[C@H]1CN([C@@H](C)CO)C(=O)c2cc(-c3ccc(F)cc3)cnc2O[C@@H]1CN(C)S(C)(=O)=O,-2,-1
6.7,CN1[C@H](C(=O)Nc2nccs2)[C@@H](CO)[C@@H]2Cn3c(ccc(-c4ccccc4F)c3=O)[C@@H]21,-12,-6
1.5,O=C([C@@H]1[C@@H](CO)[C@@H]2Cn3c(cccc3=O)[C@@H]2N1C(=O)CC1CC1)N1CCCCC1,-3,-1
4.3,CN(C)c1ccc2c(c1)[C@H]1C[C@@H](CC(=O)N3CCc4ccccc4C3)O[C@@H](CO)[C@H]1O2,-4,1

Just DUX4 inh and DUX4 inh control (six entries from above):
| SMILES | DUX4 inh | DUX4 inh control |
| --- | --- | --- |
| CCCNC(=O)N1CC2(C1)[C@H](c1ccccc1)[C@H](CO)N2C(=O)C1CCCCC1 | 1 | 1.5 |
| Cc1noc(C)c1NC(=O)Nc1ccc2c(c1)C(=O)N([C@@H](C)CO)C[C@@H](C)[C@@H](CN(C)S(=O)(=O)c1ccc(F)cc1)O2 | -2 | 0.6 |
| CN(C)CC(=O)N1[C@@H](CO)[C@@H](c2ccccc2)C12CN(CCC(F)(F)F)C2 | 11 | 12 |
| COc1cccc(-c2ccc3c(c2)O[C@H](CN(C)Cc2cccnc2)[C@@H](C)CN([C@@H](C)CO)S3(=O)=O)c1 | 2 | 1.6 |
| CC(C)NC(=O)N1CC(=O)N2[C@H](C1)[C@H](c1ccc(/C=C/c3ccccc3)cc1)[C@@H]2CO | 1 | 0.1 |
| C/C=C/c1ccc([C@@H]2[C@H](CO)N(C(=O)C3CC3)[C@H]2CN(CC)C(C)=O)cc1 | 3 | -2.0 |

Remaining list, next part
DUX4 inh control,structure,DUX4 inh difference,DUX4 inh
-3.3,CC(=O)N1[C@@H](CO)[C@@H](c2ccccc2)C12CN(C(=O)c1cnccn1)C2,12,9
-2.0,C/C=C/c1ccc([C@H]2[C@@H](CO)N(C(=O)CC)[C@@H]2CNC(=O)c2ccncc2)cc1,-1,-3
5.6,COCC#Cc1ccc([C@H]2[C@H]3CN(C(=O)Nc4cc(F)ccc4F)CC(=O)N3[C@H]2CO)cc1,3,9
-5.3,Cc1ccccc1CN(C)C[C@@H]1OCc2cnnn2CCCC(=O)N([C@H](C)CO)C[C@@H]1C,-3,-8
-7.4,O=C(C[C@H]1CC[C@H]2[C@@H](COC[C@H](O)CN2Cc2cccc(Cl)c2)O1)Nc1nccs1,6,-1
nt,O=C(C[C@@H]1CC[C@H]2[C@@H](COC[C@@H](O)CN2C(=O)c2ccccc2F)O1)NCc1ccc(Cl)c(Cl)c1,nt,?
-3.4,Cc1ccccc1-c1ccc([C@H]2[C@@H](CO)N3CCCCN(S(=O)(=O)Cc4ccccc4)C[C@H]23)cc1,13,9
-1.1,CO[C@H]1CN(C)C(=O)c2cc(NS(=O)(=O)c3cn(C)cn3)ccc2OC[C@H](C)N(C)C[C@H]1C,-2,-3
-5.2,CN(C)CC(=O)Nc1ccc2c(c1)[C@@H]1C[C@@H](CC(=O)NCc3ccc(-c4ccccc4)cc3)O[C@H](CO)[C@@H]1O2,0,-5
2.3,O=C(C[C@@H]1C[C@@H]2c3cc(NS(=O)(=O)c4ccc(F)cc4)ccc3O[C@@H]2[C@H](CO)O1)N1CCCCC1,-1,2
-4.3,COc1cccc(-c2ccc3n(c2=O)C[C@H]2[C@H](CO)[C@@H](C(=O)NC4CCC4)[C@@H]3N2C)c1,3,-1
nt,O=C(C1CC1)N1CC2(C1)[C@H](c1ccccc1)[C@@H](CO)N2Cc1ccc(Cl)cc1,nt,?
2.3,CC(=O)N1[C@@H](CO)[C@@H](c2ccccc2)[C@@H]1CN(C)C(=O)CN1CCOCC1,-4,-2
-0.6,Cc1ccc(S(=O)(=O)N[C@H]2CC[C@H](CCn3cc(C4(O)CCCC4)nn3)O[C@@H]2CO)cc1,1,0
10,COc1ccc(C#Cc2ccc3c(c2)[C@H]2[C@H](CCN2C(=O)c2ccncc2)[C@@H](CO)N3)cc1,4,14
0.6,CCN(C[C@@H]1[C@@H](c2ccccc2)[C@H](CO)N1S(C)(=O)=O)C(=O)C1CC1,-4,-3
-3.1,C[C@H](CO)N1C[C@H](C)[C@@H](CN(C)C(=O)Nc2ccccc2)OCc2cnnn2CCCC1=O,2,-1
7.9,C[C@@H]1CN([C@@H](C)CO)C(=O)CCCn2cc(nn2)CO[C@@H]1CN(C)C(=O)Nc1ccccc1C(F)(F)F,-7,1
12,CCCNC(=O)N1CC2(C1)CN(S(C)(=O)=O)[C@@H](CO)c1c2c2ccc(OC)cc2n1C,-2,9
4.4,O=C(c1cccc(F)c1)N1CC(=O)N2[C@H](C1)[C@@H](c1ccc(-c3ccccc3)cc1)[C@@H]2CO,-3,2
-1.3,Cc1ccc(S(=O)(=O)Nc2ccc3c(c2)C(=O)N([C@@H](C)CO)C[C@H](C)[C@H](CN(C)S(=O)(=O)c2cccs2)OCCCC[C@H](C)O3)cc1,-3,-4
-0.5,N#C[C@H]1[C@@H](c2ccccc2)[C@@H](CO)N1S(=O)(=O)Cc1ccccc1,-1,-1
-1.6,CN(C)C(=O)c1ccc(-c2ccc([C@@H]3[C@@H](CO)N4CCCCN(Cc5ccncc5)C[C@@H]34)cc2)cc1,32,31
7.8,CCCNC(=O)[C@@H]1[C@@H](CO)[C@@H]2Cn3c(ccc(-c4ccc(F)cc4)c3=O)[C@H]1N2C,-9,-1
-2.7,Cc1ccc(S(=O)(=O)N2C[C@@H]3[C@H](c4ccccc42)[C@H](CO)N3Cc2cccnc2)cc1,-1,-4

These rows are one share of the data, so the mix of outcomes need not match the whole.
